# From PubChem
# Prx2 Sm inh: Schistosoma mansoni Prx2 inhibition; S. mansoni Prx2 activity coupled to TGR/GSH (TGR is thioredoxin glutathione reductase), NADPH fluorescence loss, qHTS; some inactives read as strong as hits; Potency, µM; actives 0.07% (n = 65,000); active means full or partial inhibition curve with a strong effect at the top dose; inconclusive means weaker partial or single-point curve; inactive means no accepted curve; further: series up to 57 µM; many of its hits are not listed in these tables
#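 Activity is read as the drop in NADPH fluorescence (365/450 nm), recorded every 30 sec for 8 min after H2O2 addition. Prx2 is coupled to TGR-driven NADPH oxidation through glutathione, in phosphate buffer pH 7.4.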
# LT uptake inh: blocks cellular internalization of anthrax lethal toxin; Potency, µM (highest dose often 40 µM), without a hit: at the highest dose activity change, negative = inhibition, usual class: inhibitors; Cells, anthrax lethal toxin internalization, FRET ratio (460/530); actives 0.67% (n = 70,000); active = well fitted falling ratio curve with the 530 nm signal flat; inconclusive = other ratio curves, or a change in one channel alone; inactive = flat curves in the ratio and both channels; the % refers to the ratio; further: on the % scale 0 is the no-effect control and ±100 the full control effect; nearly all actives have a fitted effect of over 50% in size; tested in ME-180 cells; beta-lactamase reporter
# The depositor's hits bear a star; i = inactive; ? = inconclusive; · = not tested or not shown; [ ] = dose if it differs, or a comment. Potency means the concentration at half of the fitted maximal effect.
SMILES,Prx2 Sm inh,LT uptake inh
N#Cc1ccc(CN2CCCC3(CCN(C(=O)c4cc(C(F)(F)F)cc(C(F)(F)F)c4)CC3)C2)cc1,>57,?
CC(=O)c1ccc(N2CCN(C(=O)C3(S(=O)(=O)c4ccc(Cl)cc4)CC3)CC2)cc1,>57,-17%
Cc1nnc(SCC(=O)Nc2ccc(Oc3ccccc3)cc2)n1N,>57,-1%
CN1CCN(CC(=O)n2c3c(c4ccccc42)CCCC3)CC1,>57,-18%
O=C(Nc1ccccc1C(F)(F)F)c1cc(-c2ccccc2O)on1,>57,-14%
COc1ccc(OC)c(C(C)NC=O)c1 (configuration not stated),·,5%
COc1ccc(S(=O)(=O)N2CCCC(C(=O)N3CCN(C)CC3)C2)cc1C (configuration not stated),>57,?
COCCn1c(=O)c(-c2ccc(Cl)cc2)nc2cnc(Nc3ccccc3)nc21,>57,?
O=C(O)c1ccc(C(=O)O)c(C(=O)O)c1.[NH-][C@@H]1CCCC[C@@H]1[NH-].[Pt],i,-7%[8 µM]
Nc1c(C(=O)NCCN2CCOCC2)c2nc3ccccc3nc2n1-c1ccccc1,>57,16%
O=S(=O)(NCCc1ccccc1)c1ccc(S(=O)(=O)N2CCCCC2)cc1,>57,-1%
COc1ccccc1NC(=O)C(Cc1ccc(Cl)cc1)c1nn[nH]n1 (configuration not stated),>57,7%
O=C(Cn1c(NCCO)nc2ccccc21)c1cccs1,>57,12%
O=C(CSc1nc(C2CC2)nc2sc3c(c12)CCCC3)NCc1ccco1,>57,0%
CCCc1cc(=O)[nH]c(SCC(=O)Nc2cc3c(cc2C(C)=O)OCO3)n1,>57,11%
CCCCCNC(=O)C(C#N)c1nc2ccccc2nc1N1CCCC1 (configuration not stated),>57,?
COc1ccc2nc(N3CCCC(C(=O)NCCCN4CCN(C)CC4)C3)sc2c1 (configuration not stated),>57,-1%
C=CCn1c(SCc2ccc(OC)cc2)nnc1-c1cccnc1,>57,·
Cc1cc(NC(=O)CCC(=O)N(CCC(C)C)CC(=O)NCC2CCCO2)no1 (configuration not stated),>57,?
O=C(Oc1ccccc1)c1ccc(-n2cnnn2)cc1,>57,-19%
O=C(CCN1CCCCC1c1cccnc1)NCc1ccccc1 (configuration not stated),>57,-2%
CCn1cc(C(=O)NCc2ccco2)c(=O)c2cc(S(=O)(=O)N3CCc4ccccc4C3)ccc21,>57,-8%
CC(=O)Nc1ccc2nc(C3CCCCC3)[nH]c2c1,>57,-14%
CC1(C)C(c2ccccn2)=[N+]([O-])C(C)(C)N1O,·,1%
CCOc1ccc(-n2c(O)c(C=Nc3ccc(N4CCOCC4)cc3)c(=O)[nH]c2=O)cc1,·,?
NC(=O)c1ccc(NS(=O)(=O)c2ccccc2F)cc1,>57,7%
COCC(C)n1c(C)cc(C(=O)COC(=O)c2ccc(N3CCCC3=O)cc2)c1C (configuration not stated),>57,-10%
CCOC(=O)c1c(C)n(C)c2ccc(O)c(CN3CCN(C)CC3)c12,>57,-4%
CC1CCCCN1C(=O)CSc1nnc(-c2cccnc2)n1C1CCCCC1 (configuration not stated),>57,0%
O=S(=O)(c1ccccc1)N1CCC2(CC1)CN(c1ncccn1)C2,>57,0%
C[C@@H](SCc1ccccc1)C(=O)O,>57,-2%[8 µM]
COC(=O)c1cc(=O)n(Cc2ccc3c(c2)OCO3)c(=Nc2ccccc2)s1,>57,-17%
COc1ccc(C(C)(C)C)cc1NC(=O)c1ccoc1C,>57,·
Cc1ccc(-n2ncc3c2ncn2nc(-c4ccco4)nc32)c(C)c1,>57,?
Cc1nc2ncnn2c(N2CCC(C(=O)NC3CCCC3)CC2)c1Cc1ccccc1,>57,-25%
Cn1nc(C(=O)N2CCOCC2)c2ccccc2c1=O,>57,?
CCOC(=O)CSc1nnc(Cn2nnc(-c3ccccc3)n2)n1CC,>57,·
CCC(=O)NC1=C(C#N)C2(CCCC2)Cc2ccccc21,>57,1%
COc1ccc(C2=NCC(=O)N(CC(=O)NCc3ccco3)c3sc4c(c32)CCCC4)cc1OC,>57,7%
CCc1cc(C(=O)Cc2ccc(F)cc2)c(O)cc1O,·,-25%
COc1ccc(-c2nnc(SC)n2C)cc1,>57,?
COc1cc(C2NC(=O)NC(O)(C(F)(F)F)C2C(C)=O)cc(OC)c1OC (configuration not stated),>57,6%
CCOc1nc(C)ccc1-c1noc(C)n1,>57,-14%
CC1CCN(c2nc3ccccc3nc2C(C#N)C(=O)NC2CCCCC2)CC1 (configuration not stated),>57,13%
O=C(NCc1cccnc1)c1cc(S(=O)(=O)N2CCCCC2)ccc1Cl,>57,-5%
COc1ccccc1CNc1ncnc2nc[nH]c12,>57,?
C/C(CCN1CCc2nc(-c3ccccc3)c(-c3ccccc3)cc2C1)=N\O[C@@H](C)CN1CCCCc2nc(C)c(C)cc21,·,?
O=C(NCCc1ccncc1)Nc1ccccc1Cl,>57,?
O=C1Nc2ccc(NS(=O)(=O)c3cccs3)c3cccc1c23,>57,8%
Cc1c(Br)c(=O)[nH]c(=O)n1COCc1ccccc1,>57,0%
COC(=O)c1[nH]c2cccc(C)c2c1NC(=O)CN1CCCc2ccccc21,>57,?
CCOc1ccc(NC(=O)CN2C(=O)COc3ccc(Cl)cc32)cc1,>57,?
COc1ccc2nc3oc(C(=O)N4CCC(C(N)=O)CC4)cc3cc2c1,>57,10%
COc1cccc(Cn2c(=O)c(-c3cccc(C#N)c3)nc3cnc(OC)nc32)c1,>57,-12%
Nc1ccc(C(=O)OCc2nc3ccccc3[nH]2)cc1,>57,-8%
Nc1ccc(S(=O)(=O)c2cccc(N)c2)cc1,>57,-8%
COCCNCC(=O)C12CC3CC(CC(C3)C1)C2,>57,?
O=C(C1COc2ccccc2O1)N1CCN(c2ccccc2F)CC1 (configuration not stated),·,-10%
CCCOC(=O)Cc1n[nH]c(=O)[nH]c1=O,>57,-11%
COc1cc2cc(C(=O)O)n(C)c2c(OC)c1OC,>57,-6%

# Copied from the list.
# COC(=O)c1[nH]c2cccc(C)c2c1NC(=O)CN1CCCc2ccccc21 in Prx2 Sm inh → >57
# COc1ccccc1CNc1ncnc2nc[nH]c12 in Prx2 Sm inh → >57

# Remaining list, next part.
SMILES,Prx2 Sm inh,LT uptake inh
COc1ccc(-c2cc(C(=O)N3CC4(C)CC3CC(C)(C)C4)no2)cc1 (configuration not stated),>57,4%
O=C(CSc1ncnc2sc3c(c12)CCCC3)N1CCC(c2noc3ccc(F)cc23)CC1,>57,-8%
CCOC(=O)c1cccc(NC(=O)CSc2nnc(-c3cccnc3)n2CC)c1,>57,11%
NC(=O)COc1ccc(C2c3c(oc4ccccc4c3=O)C(=O)N2CC2CCCO2)cc1 (configuration not stated),>57,-9%
O=C1c2ccccc2S(=O)(=O)N1CCCCN1CCN(c2ncccn2)CC1,>57,?
CCOC(=O)N1CCN(c2nc(=S)n(-c3ccccc3)c(C)c2C(C)=O)CC1,>57,14%
Cc1c(NS(=O)(=O)c2ccc3c(c2)n(C)c(=O)n3C)c(=O)n(-c2ccccc2)n1C,>57,?
CN(C)S(=O)(=O)c1ccc(-c2ccccc2)cc1,·,7.9µM*
CCOC(=O)NC(NC(=O)OCC)C(=O)c1ccccc1,>57,8%
CN(C)c1ccc(C2N(c3cccc(Cl)c3)C(=O)C3CCCN32)cc1 (configuration not stated),>57,-1%
COc1ccccc1N1CCN(C(=O)Cn2nnc(-c3ccncc3)n2)CC1,>57,0%
Cc1noc(C)c1-c1nccc(Nc2ccc(F)cc2)n1,>57,-10%
COc1ccccc1N1CCN(c2nc(C)nc3c2oc2ccccc23)CC1,>57,·
CCS(=O)(=O)N1CCCC(C(=O)NCc2ccccc2Cl)C1 (configuration not stated),>57,-14%
CC(=O)Nc1cccc(OC(=O)N2CCOCC2)c1,>57,-5%
c1ccc(CSCc2ccccc2)cc1,·,-13%
CC1=C(C(=O)OCc2ccccc2)C(C2CCCCC2)NC(=O)N1CCCCCC(=O)O (configuration not stated),·,13%
O=S(=O)(c1ccccc1)N(Cc1nc(-c2ccccc2)no1)C1CCCCC1,·,-37%
Cc1ccc(Cn2nnc3c(=O)[nH]c(C(=O)NCc4ccco4)nc32)cc1,>57,-10%
COc1ccccc1/C=N/n1cnnc1,·,4%
CCOC(=O)N1CCN(S(=O)(=O)c2ccc(OCC)c(C)c2)CC1,>57,6%
COc1cc(C(=S)N2CCCC2)ccc1O,>57,?
COc1ccccc1-c1cc(N)n(S(=O)(=O)c2ccc(F)c(C)c2)n1,>57,?
Cc1ccc(-n2nnnc2SCC(=O)c2cc(C)n(-c3cc(C)on3)c2C)cc1,>57,-2%
CC(C)CNc1nc(Oc2ccc(=O)n(C)n2)nc(N2CCOCC2)n1,>57,-6%
Clc1ccc(-c2nn3c(-c4ccncc4)nnc3s2)c(Cl)c1,>57,-11%
Cn1c(=O)cc(OCCCC(=O)N2CCN(Cc3ccc4c(c3)OCO4)CC2)c2ccccc21,>57,?
CN(Cc1cccs1)C(=O)COc1ccc(-c2nnco2)cc1,>57,1%
c1ccc(CNc2ncnc3nc[nH]c23)cc1,>26,3%[3.58 µM]
Cc1c2c(nc3ccccc13)OCC2,>57,-15%
O=C(O)CCc1ccc(-c2cccs2)n1NC(=O)c1ccc(O)cc1,>57,-12%
NC(=O)C[C@H](N)C(N)=O,>57,-10%[8 µM]
Cn1cnnc1SCC(=O)c1ccc2c(c1)CCCC2,>57,0%
COc1ccc(CCn2nnnc2C(CC(C)C)N2CCC(C(N)=O)CC2)cc1OC (configuration not stated),>57,0%
CC(=O)O[C@H]1C(=O)[C@@]2(C)[C@H]([C@H](OC(=O)c3ccccc3)[C@]3(O)C[C@H](OC(=O)[C@H](O)[C@@H](NC(=O)c4ccccc4)c4ccccc4)C(C)=C1C3(C)C)[C@]1(OC(C)=O)CO[C@@H]1C[C@@H]2O,>57,?
CC(C)=CCl,·,4%
COC(=O)Cc1c(C)nc2nc(NCc3ccc(Cl)cc3)[nH]n2c1=O,>57,-8%
CN1CCN(CC(=O)Nc2ccc(Oc3ccccc3)cc2)CC1,>57,?
O=C(CC1C(=O)OCN1C(=O)OCc1ccccc1)OCC(=O)c1ccccc1 (configuration not stated),>57,4%
CCCCNC(=O)Nc1ccc(Br)cn1,>57,4%
C=CCn1c(=O)c(C(=O)Nc2nnc(C)s2)c(O)c2ccccc21,>57,-11%
Cn1c(SCc2nnc(-c3ccccc3Br)o2)nc2sc3c(c2c1=O)CCC3,>57,6%
CCC(=O)N1CC23C=CC(CC2CC12CCCCC2)O3 (configuration not stated),·,1%
CC1(C(=O)NCCCNc2ncc(C(F)(F)F)cc2Cl)C=CC2(CCCCC2)N1C(=O)c1ccccc1 (configuration not stated),·,25µM*
Nc1c(C(=O)NCCN2CCOCC2)c2nc3ccccc3nc2n1CCc1ccccc1,>57,?

# Entries from the list above that have two or more sulfur atoms:
SMILES,Prx2 Sm inh,LT uptake inh
O=S(=O)(NCCc1ccccc1)c1ccc(S(=O)(=O)N2CCCCC2)cc1,>57,-1%
O=C(CSc1nc(C2CC2)nc2sc3c(c12)CCCC3)NCc1ccco1,>57,0%
O=C1Nc2ccc(NS(=O)(=O)c3cccs3)c3cccc1c23,>57,8%
O=C(CSc1ncnc2sc3c(c12)CCCC3)N1CCC(c2noc3ccc(F)cc23)CC1,>57,-8%
Cn1c(SCc2nnc(-c3ccccc3Br)o2)nc2sc3c(c2c1=O)CCC3,>57,6%

# 3 structures already listed, arranged by count of non-hydrogen atoms, descending:
SMILES,Prx2 Sm inh,LT uptake inh
COC(=O)Cc1c(C)nc2nc(NCc3ccc(Cl)cc3)[nH]n2c1=O,>57,-8%
CN1CCN(CC(=O)Nc2ccc(Oc3ccccc3)cc2)CC1,>57,?
CCC(=O)N1CC23C=CC(CC2CC12CCCCC2)O3 (configuration not stated),·,1%

# Going on with the list.
SMILES,Prx2 Sm inh,LT uptake inh
CC(C)c1nc2oc3c(=O)[nH]cnc3c2c2c1CCC2,>57,-5%
COc1ccc(OC)c2[nH]c(=O)c(CCNC(=O)COc3ccccc3)cc12,>57,7%
O=C(c1ccco1)N1CCC2(CC1)CN(c1cccc(-c3ccccc3)c1)C2,>57,-21%
COc1ccc(-c2cc(C(F)(F)F)nc(SCCC(=O)NCc3ccco3)n2)cc1,>57,-29%
COc1ccc(-c2nc(-c3ccccc3)no2)c(OC)c1,>57,-16%
O=C(O)C1C2C=CC3(CN(Cc4ccncc4)C(=O)C13)O2 (configuration not stated),>57,0%
CCn1c(=O)[nH]c2ccccc21,>57,?
O=C(O)c1ccc(Cl)cc1NC(=O)C1CCCO1 (configuration not stated),>57,2%
COc1ccc(S(=O)(=O)N(C)CC(=O)NC2CCCCC2)cc1OC,>57,6%
CCCCN1CC(C(=O)NC2CCCCC2)CC1=O (configuration not stated),>57,-2%
COc1ccccc1NC(=O)c1cc(Cl)ccc1NC(=O)c1ccco1,>57,-9%
O=C(O)c1ccccc1NC(=O)C1CCCO1 (configuration not stated),>57,6%
COc1cccc(C2C3CN(C)CC=C3C(C#N)=C(N)C2(C#N)C#N)c1OC (configuration not stated),>57,?
COc1cccc(Nc2ncc3nc(CCc4ccccc4)c(=O)n(C4CC4)c3n2)c1,>57,?
CCn1nnnc1SCC(=O)Nc1cccc(C)n1,>57,-3%

# Single records (already shown).
# CCOC(=O)N1CCN(S(=O)(=O)c2ccc(OCC)c(C)c2)CC1 is listed as Prx2 Sm inh: >57; LT uptake inh: 6%
# COc1ccc(-c2cc(C(=O)N3CC4(C)CC3CC(C)(C)C4)no2)cc1 (configuration not stated) is listed as Prx2 Sm inh: >57; LT uptake inh: 4%
# COc1ccccc1-c1cc(N)n(S(=O)(=O)c2ccc(F)c(C)c2)n1 is listed as Prx2 Sm inh: >57; LT uptake inh: ?

# This is a subset. The share of hits here may be higher or lower than overall.
